NPYLR7 ag: mosquito NPYLR7 agonism; HEK293T NPYLR7/Galpha15, GCaMP6s calcium fluorescence; activation, % at 10 µM; hit rate 0.15% among 270,000; in the data active = activation above about 40%;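 note: 0% = vehicle and 100% = reference agonist at the receptor; some compounds past the cut are filed as inactive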
NPYLR7 ag max-min: recorded beside NPYLR7 ag, whose call it bears; activation, %; measured here: Max-Min RFU normalised activation; some inactives read as strong as hits;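 span of the calcium signal over five minutes; 0% = vehicle and 100% = native peptide agonist; compound fluorescence can raise it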
An asterisk follows results filed as active. These rows are one share of the data (hit frequency here may not be typical).

Values run as follows: NPYLR7 ag | NPYLR7 ag max-min
1) Cn1nc(C(=O)NC(c2ccccc2)c2ccncc2)c2ccccc2c1=O (stereo not drawn)
 : -3 | 5
2) O=S(=O)(NCCOc1ccc(-c2cccs2)nn1)c1ccc(F)cc1
 : -1 | -2
3) COc1cccc(C(=O)N2CCCC(OCc3cccc(OC(F)(F)F)c3)C2)c1 (stereo not drawn)
 : -2 | 2
4) COCCN(Cc1ccc(OS(=O)(=O)c2cccc(C(F)(F)F)c2)cc1)C(=O)c1ccc(OC)cc1
 : -2 | 2
5) c1ccc(-c2nn3c(c2-c2ccnc4cc(OCCN5CCOCC5)ccc24)CCC3)nc1
 : -3 | -8
6) CC/C=C(\C)c1c(-c2ccccc2)ncn1CC(O)CO (stereo not drawn)
 : -4 | 3
7) O=C1c2ccc(O)cc2C(=O)c2ccc(O)cc21
 : -3 | -7
8) COc1ccccc1CN(CCO)c1cccc(F)c1C#N
 : 5 | 4
9) CON(C)C(=O)Nc1cnc(OC(c2ccccc2)C(F)(F)F)c(C)c1 (stereo not drawn)
 : 2 | 1
10) CN1CCN(c2ccc(Nc3nccc4[nH]c(-c5ccccc5)cc34)cc2)CC1
 : -6 | -10
11) CN(C)C(C(=O)NC1CC1c1cccc(F)c1)c1ccccc1 (stereo not drawn)
 : -1 | -1
12) CCCCCc1ccc(C(=O)N(CC(=O)N(Cc2ccco2)Cc2cccn2C)C(C)CC)cc1 (stereo not drawn)
 : 4 | 20
13) CCCNC(=O)C1(C)CCN(Cc2nccn2C)C1 (stereo not drawn)
 : 0 | 1
14) CCNC(=O)C1CCCN(C(=O)NC(C)c2ccc(OC(F)F)cc2)C1 (stereo not drawn)
 : 4 | 2
15) Cc1cccc(Oc2cc(N3CCN(C(=O)C4CC4)C(C)C3)ncn2)c1 (stereo not drawn)
 : 10 | 8
16) O=C1NC(Nc2nc3ccccc3s2)(C(F)(F)F)C(=O)N1C1CCCCC1 (stereo not drawn)
 : 1 | -1
17) O=S(=O)(NCCn1ccnc1)C1=Cc2ccccc2CC1
 : 3 | 1
18) O=S(=O)(c1ccccc1)n1cccc1CN1CCCC(Cn2ccnc2)C1 (stereo not drawn)
 : -3 | -7
19) CCN(CC(=O)NC(C)(C)C)S(=O)(=O)c1cccc(Cl)c1Cl
 : 2 | 2
20) COC(=O)Cn1c(=O)c2c(nc3n(CC4CCCO4)c(C)cn23)n(C)c1=O (stereo not drawn)
 : -6 | -6
21) CS(=O)(=O)c1ccc(SCC(O)c2ccccc2)c(S(C)(=O)=O)c1 (stereo not drawn)
 : 6 | 1
22) COc1ccc(Nc2nc(-c3cccc(Br)c3)nc3ccccc23)cc1
 : 1 | 3
23) CCn1nnnc1SCc1csc(-c2c(F)cccc2F)n1
 : 1 | -2
24) CCC(C(=O)N(CCOC)CC(=O)N(CCc1c[nH]c2ccccc12)Cc1ccccc1)c1ccccc1 (stereo not drawn)
 : 14 | 14
25) COc1cccc(COC2CN(C(=O)CSc3nnc(C)s3)CC(=O)N(CC(C)C)C2)c1 (stereo not drawn)
 : -4 | -11
26) O=c1c2ccccc2cnn1CN1CCN(S(=O)(=O)c2ccc(F)c(Cl)c2)CC1
 : 6 | 2
27) O=C1COCc2cc(-c3ccccc3)ccc2N1CC1CC1
 : 5 | 2
28) CCc1nc2c(OCCn3cccc3)cccn2c1N(C)C(=O)C(C)C
 : 3 | 7
29) O=c1[nH]c(CSCc2ccc(F)cc2)nc2ccsc12
 : -9 | -9
30) Cc1cc(NC(=O)COC(=O)c2ccc3c(c2)OCCCO3)no1
 : -6 | 10
31) CCOc1ccc(-c2ccccc2NC(=O)C2CC2)cc1
 : -9 | -18
32) CCN(Cc1nccn1Cc1cccc(C)c1)C(=O)c1ccc(F)cc1
 : 6 | 8
33) Cc1sc(S(C)(=O)=O)c(C(=O)O)c1Br
 : -2 | -3
34) CC1(C(=O)Nc2ccc(Cl)c(Cl)c2)CCN1C(=O)Cc1cccc2ccccc12 (stereo not drawn)
 : -4 | -7
35) Cc1ccc(-c2cc(C(=O)N3CCN(c4ccccc4F)CC3)n(-c3cccc(Cl)c3)n2)o1
 : 5 | 8
36) CC1CCCCC1NC(=O)c1ccc(OCC2CCCO2)cc1 (stereo not drawn)
 : 0 | -2
37) Cc1nc(C(=O)NCCS(=O)(=O)N2CCCC2)cs1
 : 1 | 2
38) CN(C)CCN(Cc1cc(NC(=O)C2CC2)ccc1N(C)C)C(=O)c1ccc(F)cc1
 : 2 | 5
39) Cc1nc(CCN(C)C(=O)c2cc(COc3ccccc3F)[nH]n2)no1
 : -3 | 0
40) CCn1cc(C(CC(=O)NCCN2CCOCC2)c2cc(OC)cc(OC)c2)c2ccccc21 (stereo not drawn)
 : -7 | 2
41) CCOC(=O)C1(C/C=C/c2ccccc2)CCCN(C(=O)CCn2ccc(C)n2)C1 (stereo not drawn)
 : 1 | 2
42) Cc1ccccc1C(=O)N[C@@H]1CCCCC1NC(=O)C1CCN(C(=O)c2cccc([N+](=O)[O-])c2)CC1 (stereo partly drawn)
 : 0 | 2
43) Cn1nnc2c(N3CCN(C(=O)C4CC(=O)N(c5cccc(F)c5)C4)CC3)ncnc21 (stereo not drawn)
 : 1 | 17
44) CCCC(=O)C1=C(c2ccc(F)cc2)N(C(=O)CCC)n2c(C)nnc2S1
 : 1 | -1
45) Cc1nnc(C(NC(=O)CNC(=O)C2CCCC2)c2ccccc2)n1C (stereo not drawn)
 : 2 | -5
46) Cc1nn(C(C)(C)C)c(OC(=O)c2ccc([N+](=O)[O-])cc2)c1S(=O)(=O)c1ccccc1
 : 0 | 27
47) CCOC(=O)N1CCC(N2CCC3(CC2)C(=O)N(CCN(C)C)C(=O)N3CC)CC1
 : 23 | 7
48) C=CCNS(=O)(=O)c1ccc2[nH]c(=O)[nH]c2c1
 : 16 | 3
49) CC(C)COCC(O)CN(Cc1ccco1)Cc1ccccc1F (stereo not drawn)
 : -3 | 7
50) CCCn1ccnc1C1CC(=O)Nc2c1cnn2Cc1ccccc1Cl (stereo not drawn)
 : -7 | -8
51) Cc1ccc2nc(C3CCCN3Cc3noc(-c4ccco4)n3)[nH]c2c1 (stereo not drawn)
 : 3 | -6
52) COc1ccc(NC(c2ccccn2)c2oc(CO)cc(=O)c2O)cc1 (stereo not drawn)
 : 10 | 8
53) CCCCCN(CC(=O)N(CCc1ccc(OC)c(OC)c1)Cc1ccc(C)o1)C(=O)c1ccccc1C
 : 0 | 1
54) Cn1ccnc1SCCNC(=O)c1cn(CC2CCCCC2)nn1
 : -2 | 1
55) CC(Oc1ccccc1)C(=O)Nc1c2c(nn1CC(=O)NCc1ccccc1)CSC2 (stereo not drawn)
 : -6 | -5
56) CCS(=O)(=O)N1CC(C(=O)O)Oc2ccccc21 (stereo not drawn)
 : 0 | 0
57) Cc1cc(C(=O)CSc2nc(N)cc(N)n2)c(C)n1-c1nccs1
 : 0 | -3
58) CCCNC(=O)COc1ncnc2ccc(Br)cc12
 : 2 | 2
59) O=C(C1CCCc2c1[nH]c1ccccc21)N1Cc2cnn(CCO)c2C1 (stereo not drawn)
 : 5 | 1
60) CNN=Cc1ccc(SC)cc1
 : 6 | 5

The list goes on:
Values run as follows: NPYLR7 ag | NPYLR7 ag max-min
61) Cc1ccc2nc(NC(=O)CCCn3nc(-c4cccs4)ccc3=O)sc2c1
 : 5 | 10
62) COC1CCN(S(=O)(=O)Cc2ccccc2)CC(=O)N(C)c2ccccc21 (stereo not drawn)
 : 5 | 18
63) C#CCOCC(O)CN(Cc1ccccc1)Cc1cccc(F)c1 (stereo not drawn)
 : 9 | 12
64) COc1ccc(Cn2c(C3CC(=O)N(c4ccc(OC)cc4)C3)nc3ccccc32)cc1 (stereo not drawn)
 : 4 | 3
65) C=CCOCC(O)CN(CCC(C)C)Cc1cccn1Cc1cccc(F)c1 (stereo not drawn)
 : -4 | 2
66) O=C(O)[C@@H]1CCCN1C(=O)c1ccco1
 : -6 | -8
67) Cc1nn(C)cc1-c1ccnc(NCc2cn[nH]c2-c2ccc(Cl)cc2)n1
 : 8 | 5
68) CCCCN(C)CC(=O)c1cc(C)n(C(C)C)c1C
 : 1 | -2
69) COC(=O)[C@@H]1C[C@H](NC(=O)CSC)CN1C(=O)CC(C)(C)CC(=O)N1C[C@@H](NC(=O)C2CC2)C[C@H]1C(=O)O
 : -6 | -15
70) O=C(CNC(=O)C1CC1(c1ccccc1)c1ccccc1)NCc1cccc(OC(F)(F)F)c1 (stereo not drawn)
 : -8 | -12
71) O=C(NC12CC3CC(CC(C3)C1)C2)c1cncc(Br)c1
 : -24 | -22
72) Cc1noc(C)c1C(=O)N1CCC1(C)C(=O)NS(=O)(=O)c1cccs1 (stereo not drawn)
 : -1 | -1
73) CCOC(=O)N1CCN(C(c2ccc(Cl)c(Cl)c2)C2Sc3nc(C)nn3C2=O)CC1 (stereo not drawn)
 : -11 | -14
74) Cc1ccn2c(NC(=O)C34CC5CC(CC(C5)C3)C4)c(-c3cccc(Cl)c3)nc2c1
 : -12 | -9
75) O=C(CSc1ccc(NC(=O)c2ccccc2F)nn1)NCCc1ccccc1
 : 17 | 5
76) CC(=O)c1ccc(N2CCN(C(=O)CN(C)C(C)c3cccs3)CC2)c(F)c1 (stereo not drawn)
 : 3 | 5
77) CCCCc1nc(SCC(=O)Nc2ccc(C(N)=O)cc2)c2c(=O)n(C)c(=O)n(C)c2n1
 : -3 | -8
78) COc1cc2c(cc1OC)C(CNC(=O)c1ccc(Cl)cc1)N(Cc1cccc(F)c1)CC2 (stereo not drawn)
 : 5 | 9
79) Cc1ccc(C)c(C2=NN(C(=O)CN3CCCC3)C(c3ccccc3F)C2)c1 (stereo not drawn)
 : 9 | 13
80) CS(=O)(=O)Nc1ccsc1C(=O)O
 : 4 | -1
81) O=C1NC(=O)C(C=NNC(=O)C2CCCCC2)C(=O)N1
 : 4 | 1
82) Cc1nc2nc[nH]n2c(=O)c1NS(C)(=O)=O
 : 12 | 9
83) CC(NC(=O)c1ccc(Br)o1)C12CC3CC(CC(C3)C1)C2 (stereo not drawn)
 : 4 | 12
84) COc1ccc(-c2c(C)nn(-c3ccccc3)c2C)c(C(=O)N2CCC(n3c(=O)[nH]c4ccccc43)CC2)c1
 : -9 | -16
85) CC(C)=CC(=O)N1CCC(Cc2ccc(-n3cccc3)cc2)CC1
 : 0 | -2
86) O=C(C1CCC(Cn2c(=O)c3sccc3n(Cc3ccccc3)c2=O)CC1)N1CCOCC1 (stereo not drawn)
 : 4 | 2
87) O=C(NCCc1cccc(C(F)(F)F)c1)c1ccccc1C1CCNC1 (stereo not drawn)
 : 3 | 5
88) COc1cccc(O)c1CN1CCC2(CCN(C)C2)CC1
 : 1 | -2
89) COC(=O)[C@@H]1C[C@@H](N(C)C)CN1S(=O)(=O)c1ccccc1OC
 : -5 | -5
90) Cc1cc(N2CCN(C(=O)CCn3c(=O)oc4cc(Cl)ccc43)CC2)nc(C(C)C)n1
 : -2 | 0
91) CCOC(=O)NNC(=O)Cc1ccc(CC(C)C)cc1
 : 3 | 4
92) Cc1cc(C)cc(-n2nc3c(c2NC(=O)c2ccc(S(=O)(=O)N(C)C)cc2)CSC3)c1
 : 2 | 8
93) Cc1ccc(CN(CCc2ccccc2)C(=O)CN(CCN2CCCC2)C(=O)CCc2ccccc2)o1
 : 0 | 15
94) CC(C)Cn1c(SC2CCOC2=O)nnc1-c1ccccc1F (stereo not drawn)
 : 38 | 17
95) Cc1nc(N(C)CC(O)CN2CCN(C)CC2)nc(C)c1CC(C)C (stereo not drawn)
 : 3 | 1
96) Cc1nc(C)c2c(C)c(C(=O)Nc3ccc(N4CCN(C)CC4)cn3)sc2n1
 : -3 | -5
97) COc1ccc(/C=C2/SC(=Nc3ccccc3)NC2=O)cc1OCc1ccccc1
 : 1 | -4
98) Nc1cccc2cnn(C(=O)C3CCCCN3C(=O)c3ccco3)c12 (stereo not drawn)
 : 0 | -1
99) Cc1ccc(-n2nnnc2SCc2ccccc2C#N)cc1
 : -6 | 4
100) CC(C)(CCl)C(=O)Nc1ccc(C2SCC(=O)N2c2ccc3c(c2)CCC3)cc1 (stereo not drawn)
 : -5 | -2
101) Cn1cc(S(=O)(=O)N2CCN(c3cccc(C(F)(F)F)c3)CC2)c(=O)n(C)c1=O
 : 1 | -3
102) O=C(c1ccc2c(=O)nc3c(-c4ccc(Cl)cc4)n[nH]n3c2c1)N1CCN(c2ccccc2)CC1
 : -2 | -9
103) O=C(c1cccc(C(F)(F)F)c1)N1CC(=O)N2CCc3cc(F)ccc3C2C1 (stereo not drawn)
 : -3 | 13

Filtered by structure, the entries above with two or more sulfur atoms
Values run as follows: NPYLR7 ag | NPYLR7 ag max-min
2) O=S(=O)(NCCOc1ccc(-c2cccs2)nn1)c1ccc(F)cc1
 : -1 | -2
21) CS(=O)(=O)c1ccc(SCC(O)c2ccccc2)c(S(C)(=O)=O)c1 (stereo not drawn)
 : 6 | 1
23) CCn1nnnc1SCc1csc(-c2c(F)cccc2F)n1
 : 1 | -2
25) COc1cccc(COC2CN(C(=O)CSc3nnc(C)s3)CC(=O)N(CC(C)C)C2)c1 (stereo not drawn)
 : -4 | -11
29) O=c1[nH]c(CSCc2ccc(F)cc2)nc2ccsc12
 : -9 | -9
33) Cc1sc(S(C)(=O)=O)c(C(=O)O)c1Br
 : -2 | -3
37) Cc1nc(C(=O)NCCS(=O)(=O)N2CCCC2)cs1
 : 1 | 2
57) Cc1cc(C(=O)CSc2nc(N)cc(N)n2)c(C)n1-c1nccs1
 : 0 | -3
61) Cc1ccc2nc(NC(=O)CCCn3nc(-c4cccs4)ccc3=O)sc2c1
 : 5 | 10
72) Cc1noc(C)c1C(=O)N1CCC1(C)C(=O)NS(=O)(=O)c1cccs1 (stereo not drawn)
 : -1 | -1
80) CS(=O)(=O)Nc1ccsc1C(=O)O
 : 4 | -1
92) Cc1cc(C)cc(-n2nc3c(c2NC(=O)c2ccc(S(=O)(=O)N(C)C)cc2)CSC3)c1
 : 2 | 8
